Assay outcomes from PubChem BioAssay.
GIRK2 act = activators of human GIRK2 potassium channels. HEK293-GIRK2 thallium flux, Thallos fluorescence. 63,000 tested, 0.05% active. calls only for hits at 25 µM. G protein-activated inward rectifier potassium channel 2 (Homo sapiens), P48051;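 active means among the strongest 0.2% of first-round signals and kept after retests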;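 further: first round at about 10 µM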
Target sequence (P48051 whole entry, looked up): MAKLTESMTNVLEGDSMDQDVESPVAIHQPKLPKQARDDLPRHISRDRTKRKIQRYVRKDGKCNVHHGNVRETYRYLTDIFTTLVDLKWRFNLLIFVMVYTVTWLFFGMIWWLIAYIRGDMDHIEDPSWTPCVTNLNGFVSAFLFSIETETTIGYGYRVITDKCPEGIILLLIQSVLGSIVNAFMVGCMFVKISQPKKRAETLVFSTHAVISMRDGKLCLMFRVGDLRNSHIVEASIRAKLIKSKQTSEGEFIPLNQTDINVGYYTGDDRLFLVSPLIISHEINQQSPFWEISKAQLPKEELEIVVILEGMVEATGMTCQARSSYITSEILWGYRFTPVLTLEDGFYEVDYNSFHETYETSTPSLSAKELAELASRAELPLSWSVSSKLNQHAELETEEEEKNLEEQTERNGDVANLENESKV
Calls only; i = inactive. A portion of the library; rates above refer to the full screens.

The first 3 entries (preview)
GIRK2 act	SMILES
i	O=C(NCCNc1cc(Nc2ccccn2)ncn1)Nc1ccccc1Cl
i	CC(C)(C)OC(=O)Cn1cccc(S(=O)(=O)N2CCCC2)c1=O
i	COc1ccc(-c2cn(C)c3c(=O)n(CC(=O)Nc4ccc5c(c4)OCCO5)cnc23)cc1

The listing, from the start:
GIRK2 act	SMILES
i	O=C(NCCNc1cc(Nc2ccccn2)ncn1)Nc1ccccc1Cl
i	CC(C)(C)OC(=O)Cn1cccc(S(=O)(=O)N2CCCC2)c1=O
i	COc1ccc(-c2cn(C)c3c(=O)n(CC(=O)Nc4ccc5c(c4)OCCO5)cnc23)cc1
i	COc1ccc(Cl)cc1NC(=O)c1ccc(=O)n(C)n1
i	Cc1cccc(-n2nnc(C(=O)NCc3cccc(Cl)c3)c2-c2cccnc2)c1
i	Cc1noc(-c2ccnc(SCC(=O)Nc3c(C)cccc3C)c2)n1
i	COc1ccc(-n2c(C)c(C)n3c4c(=O)n(CCCO)c(=O)n(C)c4nc23)c(OC)c1
i	COc1ccccc1N1CCN(CCNS(=O)(=O)c2ccc(C)cc2)CC1
i	Cn1c(=O)[nH]c(=O)c2c1nc(N1CCNCC1)n2CC(N)=O
i	O=C(Cc1ccc(F)cc1)NCc1cc(-c2cccs2)n(C2CCCC2)n1
i	COc1ccc(Cl)cc1NC(=O)N1CCCC(c2nnc(C)s2)C1 (centres undefined)
i	Cc1ncc2c(SCC(=O)Nc3ccccc3C(F)(F)F)ncnc2n1
i	COc1cc(NC(=O)Cn2cnc3c(oc4ccccc43)c2=O)cc(OC)c1OC
i	O=C1NCCc2ccc(NC(=O)C3CCCC3)cc21
i	COc1ccc(CNC(=O)CCc2nc3sc4c(c3c(=O)[nH]2)CCCCC4)cc1
i	COc1ccc(/C=C/C(=O)NC2CCCC(OC(=O)Nc3ccccc3)C2)cc1OC (centres undefined)
i	Cc1sc2ncnc(SCC(=O)N3CCC(c4noc5ccc(F)cc45)CC3)c2c1C
i	Cc1ccc(=O)n(CC(=O)N2c3ccc(F)cc3CCC2C)n1 (centres undefined)
i	CCCN(CCC)S(=O)(=O)c1ccc(Cl)c(OC)c1
i	CS(=O)(=O)N1CCN=C1SCc1c(F)cccc1Cl
i	Cc1c(-n2c(=O)c3ccccc3c3ccccc3c2=O)c(=O)n(-c2ccccc2)n1C
i	COc1ccc(NC(=O)C(=O)NCCC(c2ccccc2)c2ccccc2)cc1Cl
i	CCCN(Cc1ccsc1)C(=O)c1cccn(C)c1=O
i	O=C(Nc1nc2c(s1)COCC2)c1cc(-c2cccs2)[nH]n1
i	O=C(c1cc(-c2ccco2)on1)N1CCC(COCc2ccccc2)CC1
i	COc1cc(OC)c(NC(=O)Cn2nc3c(N4CCOCC4)nccn3c2=O)cc1Cl
i	Cc1ccc(NC(=O)c2sccc2S(=O)(=O)N(C)c2cccc(C)c2)cc1
i	c1ccc(C(c2ccccc2)c2nn3c(-c4ccncc4)nnc3s2)cc1
i	CSc1cccc(NC(=O)Cn2cnc3c(-c4ccncc4)nsc3c2=O)c1
i	CC(C)Sc1ccc(CC(=O)NCCn2ccc(C(F)(F)F)n2)cc1
i	COc1ccc(Cn2cc(-c3nc(C4CC4)no3)ccc2=O)cc1F
i	O=C(/C=C/c1ccco1)N1CCC(COCc2ccccc2)CC1

In a second layout: results already given.
SMILES | GIRK2 act
O=C(/C=C/c1ccco1)N1CCC(COCc2ccccc2)CC1 | i
COc1cc(OC)c(NC(=O)Cn2nc3c(N4CCOCC4)nccn3c2=O)cc1Cl | i

Following part.
GIRK2 act	SMILES
i	O=C1CCSCC(C(=O)N2CCCC2)N1 (centres undefined)
i	CCCn1c(=O)c2ccc(C(=O)NC(C)CC)cc2n2c(SCC(N)=O)nnc12 (centres undefined)
i	O=C(COc1ccc(-c2ccccc2)cc1)NCC1CCCO1 (centres undefined)
i	COc1ccccc1N1CCN(CCNC(=O)c2cnoc2C)CC1
i	O=C(Nc1ccccc1)C1(c2cccs2)CCCC1
i	CS(=O)(=O)N1CCN(Cc2nc3ccccc3n2Cc2ccccc2)CC1
i	O=C(Nc1nc2c(s1)CN(C(=O)Cn1c(=O)oc3ccccc31)CC2)C1CCCO1 (centres undefined)
i	O=C(NC1CCc2ccccc21)C1CCN(c2ncccc2-c2nc(-c3ccccc3)no2)CC1 (centres undefined)

4 structures already listed, arranged by SMILES length, smallest number first.
GIRK2 act	SMILES
i	O=C(COc1ccc(-c2ccccc2)cc1)NCC1CCCO1 (centres undefined)
i	CCCn1c(=O)c2ccc(C(=O)NC(C)CC)cc2n2c(SCC(N)=O)nnc12 (centres undefined)
i	O=C(Nc1nc2c(s1)CN(C(=O)Cn1c(=O)oc3ccccc31)CC2)C1CCCO1 (centres undefined)
i	O=C(NC1CCc2ccccc21)C1CCN(c2ncccc2-c2nc(-c3ccccc3)no2)CC1 (centres undefined)

The list continues.
GIRK2 act	SMILES
i	COc1ccc(S(=O)(=O)N2CCN=C2SCc2cccc(F)c2)cc1
i	O=C(Nc1nc(C(=O)Nc2cccnc2)co1)c1ccccc1
i	CCOC(=O)N1CCN(C(=O)Nc2nc(CC(=O)N3CCN(c4ccccc4)CC3)cs2)CC1
i	COc1ccc(-c2nc(C#N)c(N3CCN(C(=O)c4ccccc4)CC3)o2)cc1
i	COc1ccc(CC(=O)N2CCN(c3nnc(SCC(=O)Nc4cc(C)on4)s3)CC2)cc1
i	COc1ccccc1N1CCN(S(=O)(=O)c2cc(C(=O)Nc3ccccc3Cl)ccc2F)CC1
i	O=c1[nH]cccc1-c1noc(C2CN(S(=O)(=O)c3ccc(Br)s3)C2)n1
i	C=CCn1c(SCC(=O)Nc2ccccc2F)nc2scc(-c3ccc(OC)cc3)c2c1=O
i	CCN(CC)CCN(C(=O)c1cc(C)n(C)n1)c1nc2c(F)cccc2s1
i	O=C(CCCS(=O)(=O)Cc1ccccc1)Nc1nc2c(F)cc(F)cc2s1
i	COC(=O)c1ccc(CN2CCC(COCc3cc(OC)cc(OC)c3)CC2)o1
i	Cc1ccc2nc(C3CN(C(=O)c4c(F)cccc4F)C3)[nH]c2c1
i	Cc1noc(C2CCCN2C(=O)/C=C/c2ccc3c(c2)OCO3)n1 (centres undefined)
i	COc1ccc(/C=C2\Oc3c(ccc(OC(C)=O)c3C)C2=O)cc1OC
i	COc1cccc(OCC(=O)NCCN2CCN(c3ccc(F)cc3)CC2)c1
i	O=S(=O)(c1ccc(Br)s1)N1CC(c2nc(-c3cccs3)no2)C1
i	COc1cc(NC(=O)NCCOc2ccccc2)cc(OC)c1OC
i	COCCn1c(=O)c2c(nc3n(-c4cc(C)cc(C)c4)c(C)cn23)n(C)c1=O
i	COc1ccc(NC(=O)C(=O)NCc2ccccc2C)cc1OC
i	Cc1cc(C)c(S(=O)(=O)N(C)c2c(C)cccc2C)cc1N(C)S(=O)(=O)c1ccccc1
i	O=S(=O)(C1CC1)N1CCOC(c2cc(Cl)cc(Cl)c2)C1 (centres undefined)
i	O=C(CN1CC(c2nc(-c3cccnc3)no2)C1)NCc1ccc2c(c1)OCO2
i	CCc1cc2c(=O)c(-c3nc(C)cs3)c(C(C)C)oc2cc1OC(=O)C(C)C
i	Cc1nn(C)cc1C(C)Nc1ncc2c(=O)n(-c3ccccc3F)c(=O)[nH]c2n1 (centres undefined)
i	CCCn1c(C2CC(=O)N(CCc3ccccc3)C2)nc2ccccc21 (centres undefined)
i	COCCn1c(-n2nc(C)cc2C)nc2c1c(=O)n(Cc1ccc(F)cc1)c(=O)n2C
i	NCC(O)c1ccc(O)c(O)c1 (centres undefined)
i	Cc1cccc(C)c1N1CCN(C(=O)c2cccc(F)c2)CC1
i	CCc1cccc(OCC(O)Cn2c(NCCCn3ccnc3)nc3c2c(=O)[nH]c(=O)n3C)c1 (centres undefined)
i	Cc1ccc(NC(=O)Nc2ccccc2)cc1N1CCCC1=O
i	CC(=O)Cn1c(=O)c2c(nc3n2CCN3c2ccc(C)c(Cl)c2)n(C)c1=O
i	COC(=O)c1ccc2c(=O)n(CCC(=O)NC3CCN(Cc4ccccc4)CC3)c(=S)[nH]c2c1
i	O=C(COc1ccc2c(c1)C(=O)CC2)Nc1ccc(Cl)cn1
i	CCOC(=O)c1ccc(OC(=O)CCCCCN=C(N)N)cc1
i	CCOc1ccc(-c2noc(CSc3nc4[nH]ncc4c(=O)n3-c3ccccc3)n2)cc1OC
i	O=C(/C=C/c1c(F)cccc1Cl)c1ccc(O)cc1
i	COc1ccc(-c2ccc(N3CCN(C(=O)Cc4cn(C)c5ccccc45)CC3)nn2)cc1
i	CC(C)S(=O)(=O)c1ccc(CC(=O)NC2CCCC(OC(=O)Nc3ccc(F)cc3)C2)cc1 (centres undefined)
i	Cc1nc(-c2cccs2)sc1C(=O)NCCn1ncccc1=O
i	CCOC(=O)CCn1c(=O)c2c(nc3n(-c4ccc(CC)cc4)c(C)cn23)n(C)c1=O
i	O=C(c1ccc2c(c1)OCO2)c1cn(Cc2ccc(F)cc2)c2cc3c(cc2c1=O)OCO3
i	O=C(NCC(Cc1cccc(F)c1)N1CCCC1=O)c1ccno1 (centres undefined)
i	CC(=O)OC1C([N+]2(C)CCCCC2)C[C@H]2C3CC[C@H]4C[C@H](OC(C)=O)C([N+]5(C)CCCCC5)CC4(C)[C@H]3CCC12C (some centres undefined)
i	CCCc1cc(=O)[nH]c(SCc2nc(-c3cccc(OC)c3)no2)n1
i	C=C(C)Cn1c(=O)c2c(nc3n2CCCN3c2cccc(C)c2C)n(C)c1=O
i	Cn1c(SCC(=O)Nc2ccccc2C(F)(F)F)nc2cc(-c3ccccc3)sc2c1=O
i	O=C(CSC1CCCC1)NCCOc1ccc(-c2ccccn2)nn1
i	CCCCCn1c(=O)c2c(nc3n(CCO)c(C)c(C)n23)n(C)c1=O
i	CCOc1ccc(NC(=O)c2ccc(F)c(S(=O)(=O)N3CCC(C)CC3)c2)cc1
i	CC(C)Oc1ccc(C2C(=C(O)c3ccc(F)cc3)C(=O)C(=O)N2CCN(C)C)cc1 (centres undefined)
i	COc1ccc(-c2ccc(=O)n(Cc3nc(-c4ccc5c(c4)OCO5)no3)n2)cc1
i	Cc1ccc(CN=Cc2c(NCc3ccc(C)cc3)nc3ccccn3c2=O)cc1
i	CCc1c(C)nc(-n2nc(C3CC3)cc2NC(=O)c2ccc(S(=O)(=O)N3CCCC3)cc2)[nH]c1=O
i	CCOC(=O)c1c(NC(=O)CSc2ncn[nH]2)sc2c1CCCCC2
i	O=C(CSc1nnc(-c2ccccc2)o1)c1ccc(-c2cc(Cl)ccc2Cl)o1
i	Cc1ccccc1OCC(=O)NCc1cnn2ccccc12

(continued)
GIRK2 act	SMILES
i	CCC(=O)O[C@]1(C(=O)CCl)[C@@H](C)C[C@H]2[C@@H]3CCC4=CC(=O)C=C[C@]4(C)[C@@]3(F)[C@@H](O)C[C@@]21C
i	O=C(c1ccc(Br)o1)N1CCC(Cn2ccnc2-c2ccccc2)CC1
i	O=C(COc1ccc(Cl)cc1Cl)N1CCN(S(=O)(=O)C2CC2)CC1
i	CCCCOc1ccc(-c2cc3c(=O)n(CC(=O)Nc4cc(OC)cc(OC)c4)ccn3n2)cc1
i	O=C(CSc1nnc(N2CCN(C(=O)Cc3ccccc3)CC2)s1)Nc1ccccc1
i	COc1nn(C)cc1C(=O)Nc1nnc(SCC(=O)Nc2ccc(C(F)(F)F)cc2)s1
i	O=C(Oc1ccc2c(c1)O/C(=C\c1cccnc1)C2=O)c1ccccc1
i	CCc1ccc(NC(=O)N2CCN(c3cc(Nc4cc(C)ccn4)ncn3)CC2)cc1
i	COc1ccc(NC(=O)C(=O)NC(C)Cc2cccs2)cc1Cl (centres undefined)
i	CCc1cnc2c(c1N1CCC(C(=O)OC)CC1)c(=O)n(C)c(=O)n2C
i	O=C(NCC(c1cccs1)S(=O)(=O)c1ccc(F)cc1)c1nc2ccccc2s1 (centres undefined)
i	CCn1c(=O)c2c(nc3n(C(C)c4ccccc4)c(C)cn23)n(C)c1=O (centres undefined)
i	Cn1cnnc1SCc1cc(=O)c(OCC(=O)Nc2ccc3c(c2)OCCO3)co1
i	CCN1C(=O)CCc2cc(NC(=O)c3ccc(OC)c(OC)c3)ccc21
i	O=C1OC(C(=O)Nc2ccccc2C(F)(F)F)Cc2ccc(Cl)cc21 (centres undefined)
i	O=C(CSc1nnc2ccc(C(=O)Nc3cccc(F)c3)cn12)Nc1ccccc1F
i	COc1ccc(C2(CNC(=O)COc3cccc(C)c3)CCOCC2)cc1
i	O=c1ccc(-c2ccc3c(c2)OCO3)nn1CCc1nc(-c2ccc(OC(F)(F)F)cc2)no1
i	Cc1cc(C)c2nc(NC(=O)CN3C(=O)c4ccccc4C3=O)sc2c1
i	COc1cc2cc(CNc3ccccc3)c(=O)n(CC(=O)Nc3ccccc3Cl)c2cc1OC
i	COc1ccc(NC(=O)Cn2nc3c4c5c(sc4ncn3c2=O)CCCC5)cc1
i	C=C(C)COc1ccc(-c2nc(N)ncc2Oc2ccccc2OC)c(O)c1
i	Cc1cc(NC(=O)C2CCN(C(=O)c3ccncc3)CC2)no1
i	Cc1ccc(N2C(=O)C3N=NN(Cc4nc(-c5ccccc5Br)no4)C3C2=O)cc1F (centres undefined)

Part of the list above, comma-delimited:
Compound,GIRK2 act
COc1cc(OC)c(NC(=O)Cn2nc3c(N4CCOCC4)nccn3c2=O)cc1Cl,i
Cc1ccc(NC(=O)c2sccc2S(=O)(=O)N(C)c2cccc(C)c2)cc1,i
c1ccc(C(c2ccccc2)c2nn3c(-c4ccncc4)nnc3s2)cc1,i
CSc1cccc(NC(=O)Cn2cnc3c(-c4ccncc4)nsc3c2=O)c1,i
CC(C)Sc1ccc(CC(=O)NCCn2ccc(C(F)(F)F)n2)cc1,i
COc1ccc(Cn2cc(-c3nc(C4CC4)no3)ccc2=O)cc1F,i
O=C(/C=C/c1ccco1)N1CCC(COCc2ccccc2)CC1,i

(further entries)
GIRK2 act	SMILES
i	Cc1cnc2n(c1=O)C(CC(=O)Nc1cc(N3CCCC3)ncn1)CS2 (centres undefined)
i	Cc1ccc2oc(C(=O)NC3CCCC3)c(C)c2c1
i	COC(=O)c1sccc1S(=O)(=O)NCC1CCN(C(=O)c2ccoc2)CC1
i	COc1cccc(-c2noc(CN3C(=O)COc4cc(Cl)ccc43)n2)c1OC
i	C=CCc1ccc(OCc2nc3ccccc3n2CC)c(OC)c1
i	O=C(c1cc(=O)c(OCc2ccccc2)co1)N1CCN(c2ccccc2)CC1
i	CCC(C)/C=C(C)/C=C/C1=CC2=C(Cl)C(=O)C(C)(OC(C)=O)C(=O)C2=CN1CCCC(=O)O (centres undefined)
